# Mtb growth: M. tuberculosis H37Rv growth inhibitors, H37Rv strain (AID 1626) | inhibition, % at 10 µM; hits with a dose series show IC50 in µM | M. tuberculosis H37Rv growth inhibition; higher % means a stronger effect | 220,000 compounds, 0.95% hits;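 active = confirmed in a dose series; inconclusive = inhibition above 80% but not taken into the dose series; inactive = below 80% or under 30% at every dose of the series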;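 note: bacteria incubated seven days before Alamar blue readout; 0% = bacteria only wells and 100% = bacteria with antibiotic wells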
# Mtb betalactam: beta-lactam sensitization of Mtb H37Rv. 330,000 compounds, 0.27% hits. M. tuberculosis H37Rv growth with meropenem, percent inhibition; hits of this screen are not shown here. inhibition, % at 25 µM;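 active = about 74% or more and at least 40 points above the plate without the antibiotic, then above 30% in a dose series; inconclusive = first-round hits that could not be retested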;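 note: growth measured after seven days incubation then overnight dye step; 0% = bacteria only wells and 100% = bacteria with antibiotic; twin plates without the antibiotic show which effects depend on it; some results filed as inactive read as strong as hits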
# YopH inh: blocks Yersinia enterocolitica YopH tyrosine phosphatase | fluorescence Ex485/Em525 | 140,000 compounds, 0.16% hits | inhibition, %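 (about 10 µM by stock and volumes)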;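 active = inhibition of 50% or more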;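 note: controls were vehicle for no effect and minimum signal wells for full effect; inactives centre near -20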
# Arbovirus anti: arbovirus infection inhibition | arbovirus infection cell-based antiviral screen | inhibition, % at 10 µM | 200,000 compounds, 0.37% hits;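 active = inhibition from about 30%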;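 note: bluetongue infection of BSR cells; cell survival read as ATP light after 72 h; 0% = infected wells without compound and 100% = uninfected wells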
# RecA intein inh: inhibitors of M. tuberculosis RecA intein splicing; cell-free RecA intein splicing, fluorescence; P9WHJ3; 290,000 compounds, 0.75% hits; inhibition, %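 (about 9 µM by stock and volumes)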; in the data active = inhibition above about 30%; inconclusive = no clear call, values can overlap the other calls;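 note: 0% = vehicle wells and 100% = reference inhibitor control wells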
# Target sequence (P9WHJ3 whole entry, looked up): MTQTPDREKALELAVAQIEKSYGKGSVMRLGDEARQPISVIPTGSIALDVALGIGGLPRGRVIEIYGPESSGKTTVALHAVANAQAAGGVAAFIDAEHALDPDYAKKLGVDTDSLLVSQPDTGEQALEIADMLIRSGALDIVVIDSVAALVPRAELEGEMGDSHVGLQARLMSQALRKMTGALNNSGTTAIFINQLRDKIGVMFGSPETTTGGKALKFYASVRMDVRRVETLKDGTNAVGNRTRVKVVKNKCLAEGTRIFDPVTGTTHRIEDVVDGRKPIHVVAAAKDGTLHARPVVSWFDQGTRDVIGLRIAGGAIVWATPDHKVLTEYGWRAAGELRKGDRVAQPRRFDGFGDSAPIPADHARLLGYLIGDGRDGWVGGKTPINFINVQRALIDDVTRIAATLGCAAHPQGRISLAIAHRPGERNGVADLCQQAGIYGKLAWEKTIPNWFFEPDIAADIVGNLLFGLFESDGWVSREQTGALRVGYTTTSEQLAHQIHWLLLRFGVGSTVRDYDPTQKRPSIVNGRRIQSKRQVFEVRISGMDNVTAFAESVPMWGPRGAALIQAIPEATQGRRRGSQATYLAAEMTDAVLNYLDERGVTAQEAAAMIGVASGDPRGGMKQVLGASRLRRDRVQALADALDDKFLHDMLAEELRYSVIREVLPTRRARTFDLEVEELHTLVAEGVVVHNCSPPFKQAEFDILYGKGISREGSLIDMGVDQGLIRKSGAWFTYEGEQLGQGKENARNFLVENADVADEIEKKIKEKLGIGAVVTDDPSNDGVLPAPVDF
# Arbovirus anti repeat: further read-out of Arbovirus anti, marked with its call; inhibition, %; measured here: 10K subset replicate screen; many hits read low in the repeat;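 first of two repeat runs on a subset; 0% = infected and 100% = uninfected wells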
# * = called active by the depositor; ? = inconclusive; · = no result given. The list is partial. The share of hits here may be higher or lower than overall.
SMILES,Mtb growth,Mtb betalactam,YopH inh,Arbovirus anti,RecA intein inh,others
COc1cc(C(=O)Nc2scc(-c3ccc(Br)cc3)c2C(=O)O)cc(OC)c1OC,·,9.5,·,·,19.2,
O=C(Nc1ccc(F)cc1)c1ccc(-n2ccnc2)nc1,-6.9%,-20.0,-47.0,-0.2,-1.9,
O=C(CNC(=O)c1ccc(Br)cc1)N=Nc1c(O)[nH]c2ccc([N+](=O)[O-])cc12,·,-6.7,·,·,5.0,
O=C(CC1NCCNC1=O)Nc1ccc2c(c1)OCO2 (stereo unspecified),-0.3%,-5.3,-24.7,3.1,-0.8,
CCOc1ccccc1NC(=O)c1cc(=O)c2ccccc2o1,·,8.3,·,·,-2.2,
CC1CCN(S(=O)C23CC4CC(CC(C4)C2)C3)CC1 (stereo unspecified),8.7%,-1.2,·,3.1,-3.0,
CCOc1ccc(C(=O)N/N=C/c2cccc3cccnc23)cc1,?,99.7,-1.8,-21.6,-3.2,
CC1CCN(C(=O)c2ccc(S(=O)(=O)N(C)C)cc2)C(C)C1 (stereo unspecified),1.7%,-7.5,-25.9,9.1,0.3,
Cc1ccc(Cn2nnc3c(=O)n(CC(=O)NCc4ccc5c(c4)OCO5)cnc32)cc1,-11.4%,-10.1,34.0,-13.0,0.9,
O=C1OC(Cc2ccccn2)C(O)=C1C1=NCCCCN1 (stereo unspecified),0.7%,2.4,-5.2,-0.4,-1.7,
CCN(CC)CCNC(=O)c1cc(-c2cccnc2)nc2ccc(S(=O)(=O)N3CCC(C)CC3)cc12,·,5.5,·,·,6.0,
Cc1ccc(S(=O)(=O)NC(=O)COc2ccccc2)cc1,0.3%,-2.3,·,3.0,1.5,
S=C(Nc1cccc(Cl)c1Cl)Nn1cnnc1,5.0%,-1.0,-32.2,-3.1,0.4,
Cc1cc(C)n(CC(=O)N/N=C/c2cccc([N+](=O)[O-])c2)n1,-7.2%,0.6,-2.5,12.8,0.0,
Cc1cc(C(=O)NC2CC(C)(C)Cc3c2cnn3-c2ccccc2)n(C)n1 (stereo unspecified),·,92.1,·,·,0.6,
CS(=O)(=O)N(CC(=O)NC1CCCCC1)Cc1ccc(F)cc1,-5.4%,-2.0,·,4.9,-0.6,
Cc1nc(N2CCN(c3ccccn3)CC2)c2c(C)c(C(=O)N3CCN(c4cccc(Cl)c4)CC3)sc2n1,·,84.9,·,·,6.8,
O=C(NC1(N2CCOCC2)CC1)c1ccc(Cl)cc1,19.7%,2.1,·,·,-0.1,
O=C(CCn1c(=S)[nH]c2cc3c(cc2c1=O)OCO3)NCc1ccc(Cl)cc1,·,1.3,·,·,-4.2,
CCC(C)Sc1nnc(-c2c[nH]c3ccccc23)n1CCOC (stereo unspecified),-7.8%,-6.6,-23.3,4.6,1.2,
O=C(NCCCN1CCOCC1)c1cccc(S(=O)(=O)Nc2cc(Cl)ccc2Cl)c1,2.5%,1.7,·,1.8,-1.6,
CCN1CCN(C(=O)c2ccccc2N(C)S(=O)(=O)c2ccc(C)cc2)CC1,-6.9%,-6.2,-10.9,9.5,-0.7,
O=C(O)c1ccccc1NC(=O)C1C2CCC(O2)C1C(=O)O (stereo unspecified),·,-1.1,·,·,0.9,
COC(=O)N/N=C/c1ccccc1Cl,-1.0%,-3.5,·,5.7,-0.8,
COc1cc2c(cc1OC)CN(S(C)(=O)=O)CC2,-5.4%,4.0,-14.7,6.6,0.6,Arbovirus anti repeat=7.0
SMILES,Mtb growth,Mtb betalactam,YopH inh,Arbovirus anti,RecA intein inh,others
O=C(CN1C2=NCCCN2c2ccccc21)c1ccc2c(c1)OCO2,-2.3%,-0.2,-54.7,7.2,5.5,
O=S(=O)(c1cc(Cl)ccc1Cl)N1CCN(c2ccccn2)CC1,·,4.9,·,·,2.0,
CCn1c(=O)cc(SCC(=O)N2CCOCC2)c2ccccc21,-1.3%,-1.2,1.8,-5.2,-0.8,
COc1cccc(CNC(=O)CCC2CCCN(C(=O)CCC(F)(F)F)C2)c1 (stereo unspecified),2.6%,-6.1,·,3.4,-1.8,
COc1ccc(CCN(C)c2ccc(S(=O)(=O)N3CCCC3)cc2[N+](=O)[O-])cc1OC,-8.6%,0.5,-25.4,5.5,1.1,
Cc1ccccc1CNC(=O)Nc1ccc(Cl)cc1,·,-7.2,·,·,-0.3,
C=CCN1C(=O)C(CC(=O)O)SC1=Nc1cccc([N+](=O)[O-])c1 (stereo unspecified),3.4%,-8.2,·,-0.1,·,
CCOC(=O)c1ccc(Oc2nc(N(C)C)nc(N3CCOCC3)n2)cc1,8.7%,20.8,·,-1.1,3.0,
Cc1ccc(C(=O)NCC(=O)NCC(=O)OCc2ccc(Oc3ccc([N+](=O)[O-])cc3)cc2)cc1,6.0%,-7.1,-31.2,·,-0.5,
O=C(COC(=O)CCc1nc2ccccc2c(=O)[nH]1)Nc1ccccc1Cl,-1.9%,-2.7,·,·,0.5,
CC(=O)N(C)c1ccc(OCC(O)CN(Cc2ccco2)S(=O)(=O)c2ccc(C)cc2)cc1 (stereo unspecified),-6.2%,-0.1,-8.7,-8.6,-5.7,
CCOC(=O)c1c(S(=O)(=O)NCC(=O)N2CCN(c3ccccc3OC)CC2)c(C)n(C)c1C,·,-1.8,·,·,-23.2,
COc1ccc(C(=O)O/N=C(\N)c2ccncc2)cc1OC,2.8%,2.3,-10.0,9.5,-1.8,
CCN(CC)C(=O)C1=C(C)NC(=S)NC1c1ccc(C)s1 (stereo unspecified),8.5%,-1.1,·,26.3,2.2,
Cc1ccccc1C(=O)N1CCC(C(=O)NC2CCCCCC2)CC1,·,-3.5,·,·,-3.0,
CN(C)Cc1c(C(=O)N/N=C/c2ccc(OCc3c(F)cccc3Cl)cc2)nnn1-c1nonc1N,·,2.7,·,·,2.1,
Cc1cc(C)c(S(=O)(=O)c2ccccc2C)c(Oc2ccccc2)n1,6.2%,-2.2,-23.3,4.0,7.0,
CC(=O)c1c(C)[nH]c(C(=O)OCC(=O)Nc2ccc(C)cc2[N+](=O)[O-])c1C,-3.0%,-5.7,-7.1,11.3,-4.3,
Cc1cccc(Cn2c(N3CCN(C)CC3)nc3c2c(=O)[nH]c(=O)n3C)c1,·,-3.0,·,·,-0.8,
COc1ccc(CCNC(=O)CN2CCN(c3ccccc3Cl)CC2)cc1,-5.3%,-0.9,-4.7,2.2,1.8,
O=C(Nc1cc2cc([N+](=O)[O-])ccc2oc1=O)c1cccs1,-3.3%,-0.7,·,-3.5,-1.6,
COc1ccc(-n2c(SCC(=O)Nc3ccccc3OC)nc(O)c(Cc3ccccc3)c2=O)cc1,·,-2.1,·,·,6.7,
Nc1nnc(N)c2ccccc12,-4.8%,-5.5,·,2.9,-1.2,
Cc1ccc(C(=O)Cn2cncn2)cc1,-5.6%,-9.3,·,·,6.3,
CCc1ccc(C2CC(c3ccc(Cl)cc3)n3nc(N)nc3N2)cc1 (stereo unspecified),-1.9%,-3.6,·,6.8,1.0,Arbovirus anti repeat=0.4

# Of the compounds above, these have an aryl thioether with sulfur outside any ring.
SMILES,Mtb growth,Mtb betalactam,YopH inh,Arbovirus anti,RecA intein inh,others
CCC(C)Sc1nnc(-c2c[nH]c3ccccc23)n1CCOC (stereo unspecified),-7.8%,-6.6,-23.3,4.6,1.2,
CCn1c(=O)cc(SCC(=O)N2CCOCC2)c2ccccc21,-1.3%,-1.2,1.8,-5.2,-0.8,
COc1ccc(-n2c(SCC(=O)Nc3ccccc3OC)nc(O)c(Cc3ccccc3)c2=O)cc1,·,-2.1,·,·,6.7,

# (next part)
SMILES,Mtb growth,Mtb betalactam,YopH inh,Arbovirus anti,RecA intein inh,others
N[C@@H](Cc1ccccc1)c1nnc2sc(SCc3ccccc3)nn12,4.6%,-6.9,2.5,0.7,5.2,
O=C(O)c1ccc(-c2ccc(OS(=O)(=O)c3ccccc3F)cc2)cc1,·,4.7,·,·,-0.6,
CC(=O)N/C(=C\c1ccccc1)C(=O)OCc1cccc(S(=O)(=O)N(C)C)c1,·,12.9,·,·,-0.5,
O=C(CCC1CCCN(C(=O)c2ccncc2)C1)NCc1ccc(F)c(F)c1 (stereo unspecified),-2.3%,0.5,·,6.6,1.7,
CN(C)S(=O)(=O)c1cccc(COc2cccnc2[N+](=O)[O-])c1,·,2.8,·,·,1.1,
CCOc1ccc(OCCC(=O)OCC(=O)Nc2ccc(Cl)cn2)cc1,·,9.3,·,·,-3.8,
Cc1c(C)c2ccc(OCC(=O)N(C)C3CCS(=O)(=O)C3)c(C)c2oc1=O (stereo unspecified),·,-0.7,·,·,-0.1,
Cc1ccsc1C1C(C#N)=C(N)OC2=C1C(=O)CC(C)C2 (stereo unspecified),-5.2%,2.8,·,-1.9,0.4,
COc1cccc(NC(=O)NC2CCCCC2C)c1 (stereo unspecified),2.7%,-2.6,·,0.9,-0.9,
Cc1cc(C)nc(NS(=O)(=O)c2ccc(N3C(=O)C4CC=C(Cl)CC4C3=O)cc2)n1 (stereo unspecified),-11.0%,-1.7,-19.2,7.2,·,
CCOC(=O)CC1=C(C(=O)OCC)C(c2ccncc2)C(C#N)=C(N)O1 (stereo unspecified),2.6%,·,-12.2,0.1,·,
CC(C)[C@H](NS(=O)(=O)c1ccccc1)C(=O)OCC(=O)Nc1ccccc1Sc1ccccc1,-1.7%,-1.6,-28.2,10.3,0.2,
Cc1nc(N)c(Cc2ccccc2F)c(N)n1,-1.5%,-4.2,·,1.6,4.4,
CC1C(=O)N2CCCc3cc(NC(=O)COc4ccc(Cl)cc4)cc1c32 (stereo unspecified),·,-11.1,·,·,2.9,
O=C(O)CC(NC(=O)c1ccncc1)c1ccccc1 (stereo unspecified),-6.6%,-0.8,·,16.6,-2.8,
Nc1nc2c(c(=O)[nH]1)C(c1ccccc1)C1=C(N2)c2ccccc2C1=O (stereo unspecified),7.9%,12.9,·,·,2.9,
CCOC(=O)c1cnc(-c2ccccc2)nc1N,-2.4%,-5.7,37.1,2.4,2.7,
CC(C)CNc1ncnc2c1cnn2Cc1ccccc1Cl,·,0.0,·,·,-0.6,
O=C(COC(=O)CC1CC2CCC1C2)Nc1cccc(S(=O)(=O)NC2=NCCCCC2)c1 (stereo unspecified),6.1%,-3.9,·,-2.5,1.5,
Cc1sc2c(c1C)CN(C(C)(C)C)CN2C(=O)c1ccccc1,-7.1%,-11.3,19.4,3.0,-0.7,
Cc1ncc(CO)c(/C=N/NC(=O)c2cc3c(s2)CCCC3)c1O,1.2%,-5.9,·,-23.0,-29.5,
COc1ccccc1C(=O)NC(CCSC)C(=O)OCC(=O)NC(=O)NCc1ccco1 (stereo unspecified),-1.2%,-4.8,-16.7,3.1,1.9,
O=C(CN(Cc1cccs1)S(=O)(=O)c1ccc(S(=O)(=O)N2CCCCC2)cc1)Nc1ccccc1,-2.8%,9.1,-38.7,-13.9,-1.3,
COc1cc(C=O)cc(Br)c1OCC(N)=O,9.3%,-3.9,·,-3.5,-1.8,
COCc1[nH]nc2c1C(c1ccccc1F)C(C#N)=C(N)O2 (stereo unspecified),-5.0%,-1.8,-23.2,0.3,35.0*,
SMILES,Mtb growth,Mtb betalactam,YopH inh,Arbovirus anti,RecA intein inh,others
O=C(NN=C1CCCCCCCCCCC1)c1ccccc1F,-4.6%,88.0,3.8,-1.4,0.9,
COc1ccc(/C=N/NC(=O)c2cnccn2)c(OC)c1OC,-16.2%,-8.4,·,·,0.0,
CCOC(=O)c1c(NC(=O)Cn2c(=O)oc3ccccc32)oc(C)c1C(C)=O,-0.4%,-3.4,-21.3,-3.7,3.6,
CCN1CCCC1CNC(=O)c1cc2cc(F)ccc2[nH]1 (stereo unspecified),·,-1.8,·,·,-1.0,
O=S(=O)(c1ccc(F)c2ccccc12)N1CCCCC1,-6.4%,2.7,-18.0,0.7,6.6,
Cn1nnc2cc(C(=O)NCc3ccc4c(c3)OCO4)ccc21,-11.9%,8.9,0.9,-5.3,-4.2,
COc1ccc(S(=O)(=O)Nc2c(C)nc3nc(C)[nH]n3c2=O)cc1,·,-4.3,·,·,-0.1,
CC(C)(CNC(=O)c1cc(=O)[nH]c2ccccc12)N1CCOCC1,·,-2.2,-24.8,10.2,-1.2,
Cc1ccc(CSCCNC(=O)CN(c2ccc(F)cc2)S(C)(=O)=O)cc1,·,-1.4,·,·,-4.2,
COc1ccc(OCC(=O)OCCN(C)C)cc1,5.1%,-6.4,-30.7,2.8,-0.6,

# Sorted by number of heavy atoms (falling): some entries from above.
SMILES,Mtb growth,Mtb betalactam,YopH inh,Arbovirus anti,RecA intein inh,others
COc1ccc(S(=O)(=O)Nc2c(C)nc3nc(C)[nH]n3c2=O)cc1,·,-4.3,·,·,-0.1,
O=C(NN=C1CCCCCCCCCCC1)c1ccccc1F,-4.6%,88.0,3.8,-1.4,0.9,
O=S(=O)(c1ccc(F)c2ccccc12)N1CCCCC1,-6.4%,2.7,-18.0,0.7,6.6,
